SARS PLP yeast = qHTS of Yeast-based Assay for SARS-CoV PLP; S. cerevisiae expressing SARS-CoV PLpro, growth rescue; control for the full effect not named in the record; Potency, µM (series often up to 32.9 µM), without a hit: top-dose activity, positive = growth rescue; 330,000 tested, 0.19% active; AID 485353, 2010; active means well fitted rising curve with a large enough effect; inconclusive means small, poorly fitted or top-dose-only effect; inactive means no such curve, though single readings can be large or run the other way; note: 0% is about no effect; nearly all actives have a fitted effect of over 55% in size; growth read by luminescence after 48 h
RE007 growth inh = qHTS Assay for Inhibitors of the HIV-1 protein Vpr; S. pombe RE007 Vpr strain, BacTiter-Glo ATP luminescence, 24 h; control for the full effect not named in the record; Potency, µM (doses to about 92.2 µM), inactives show at the top dose activity change, negative = less growth; 360,000 tested, 0.21% active; active = well fitted falling curve with a large enough effect; inconclusive = small, poorly fitted or top-dose-only effect; inactive = no such curve, though single readings can be large or run the other way;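 note: % is set by controls: 0 for no effect and ±100 for the full control effect; nearly all actives have a fitted effect of over 50% in size; the assay follows cell death caused by Vpr and the record does not say whether a fall means rescue or toxicity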
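Fission yeast strain RE007, carrying one chromosomally integrated HIV-1 vpr copy, was seeded at OD 0.01 in PMG+AL medium with 23 nL pinned compound. After 24 h at 30 °C and 99% humidity, viability was read by BacTiter-Glo luminescence.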
Cruzain inh Det = qHTS Assay for Promiscuous and Specific Inhibitors of Cruzain (with detergent); Potency, µM, inactives show max response, negative = inhibition, usual class: inhibitors; Cruzipain (Trypanosoma cruzi), P25779; 200,000 tested, 0.43% active; purified cruzain, Z-FR-AMC fluorescence, 0.01% Triton;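 note: plate controls were neutral wells for no effect and buffer without enzyme for full effect; nearly all actives have a fitted effect of over 40% in size; top concentration of the series not given in the record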
Target sequence (P25779 123-467 limits assumed): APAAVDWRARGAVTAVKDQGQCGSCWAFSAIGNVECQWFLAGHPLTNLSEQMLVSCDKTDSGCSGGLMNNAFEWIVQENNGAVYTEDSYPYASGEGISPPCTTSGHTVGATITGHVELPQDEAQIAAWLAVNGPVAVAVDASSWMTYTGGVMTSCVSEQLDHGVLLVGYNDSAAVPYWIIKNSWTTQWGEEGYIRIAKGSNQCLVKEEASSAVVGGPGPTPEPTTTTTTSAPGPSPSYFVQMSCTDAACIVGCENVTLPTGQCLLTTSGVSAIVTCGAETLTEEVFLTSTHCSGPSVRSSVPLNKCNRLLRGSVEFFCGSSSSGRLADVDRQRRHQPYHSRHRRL
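Read-out: AMC fluorescence (360 nm excitation, 450 nm emission), four reads over 2 min, first-to-third difference used. Conditions: cruzain 1.5 nM, Z-FR-AMC 2 uM, pH 5.5 acetate, 5 mM DTT, 0.01% Triton X-100.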
NS1 inh = qHTS Assay for Inhibitors of Influenza NS1 Protein Function | AID 2326, 2010 | Potency, µM (series often up to 46.1 µM), for the others: at the top dose activity, positive = more growth | S. cerevisiae slowed by influenza A NS1, growth recovery by OD600 | 270,000 tested, 0.4% active; active means well fitted rising curve with a large enough effect; inconclusive means small, poorly fitted or top-dose-only effect; inactive means no such curve, though single readings can be large or run the other way; note: nearly all actives have a fitted effect of over 50% in size
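S. cerevisiae expressing influenza A NS1, grown in glucose, washed, then diluted 1:100 into pH 6.0 -URA galactose medium with 23 nl compound. Growth recovery read as OD600; NS1-free strain serves as control.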
Cruzain inh noDet = qHTS Assay for Promiscuous and Specific Inhibitors of Cruzain (without detergent). Potency, µM, without a hit: max response, negative = inhibition, usual class: inhibitors. 200,000 tested, 2.3% active. purified cruzain, Z-FR-AMC fluorescence, no detergent. Cruzipain (Trypanosoma cruzi), P25779. AID 1476, 2009;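 note: plate controls were enzyme without inhibitor for no effect and buffer without enzyme for full effect; nearly all actives have a fitted effect of over 40% in size; top concentration of the series not given in the record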
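Purified cruzain at 1.5 nM, pre-incubated 15 min with compound at room temperature in 100 mM sodium acetate pH 5.5, 5 mM DTT, 0.00005% Triton X-100. Reaction started with 2 uM Z-FR-AMC; AMC fluorescence increase over 60 s gives rate.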
2A StopGo = High Throughput Screening for Foot and Mouth Disease Virus Antivirals; Potency, µM (highest dose often 57.9 µM), for the others: at the top dose signal change, negative = less light; human cells with a luciferase reporter of 2A StopGo recoding; control for the full effect not named in the record; 410,000 tested, 1.2% active; active = well fitted falling curve with a large enough effect; inconclusive = small, poorly fitted or top-dose-only effect; inactive = no such curve, though single readings can be large or run the other way; tested in HEK293T cells; note: % is set by controls: 0 for no effect and ±100 for the full control effect; nearly all actives have a fitted effect of over 45% in size; luciferase light after 4 h
LASV entry inh = qHTS for Inhibitors of binding or entry into cells for Lassa Virus; 300,000 tested, 1.2% active; Potency, µM (top dose mostly 37.9 µM), inactives show at the top dose activity change, negative = inhibition, most hits filed as inhibitors; Lassa virus pseudotype entry inhibition, cell reporter; control for the full effect not named in the record; active means well fitted inhibition curve with a large enough effect; inconclusive means small, poorly fitted or top-dose-only effect, or effect the other way; inactive means flat fitted curve, though single readings scatter; tested in HEK293 cells; note: % is set by controls: 0 for no effect and ±100 for the full control effect; nearly all actives have a fitted effect of over 50% in size; luciferase read-out
Marburg entry inh = qHTS for inhibitors of binding or entry into cells for Marburg Virus | Marburg virus pseudotyped entry inhibition, cell reporter; control for the full effect not named in the record; about a third of the inactives were read at about 46 µM | Potency, µM (series often up to 37.8 µM), for inactives: at the highest dose activity change, negative = inhibition, usual class: inhibitors | 300,000 tested, 1.8% active; active = well fitted inhibition curve with a large enough effect; inconclusive = small, poorly fitted or top-dose-only effect, or effect the other way; inactive = flat fitted curve, though single readings scatter; tested in HEK293 cells; about a fifth of its hits are not listed in these tables; note: % is set by controls: 0 for no effect and ±100 for the full control effect; luciferase read-out
* marks the source's active call; other numbers are inactive results; ? = inconclusive; · = not tested or not shown; & = joins results of further samples; [ ] = another dose, or the depositor's remark. Unless noted, calls come from the whole dose curve; as a rule, active = well fitted curve in the direction sought with a large enough effect; inconclusive = small, poorly fitted or top-dose-only effect, or another doubt; inactive = no such curve, though single readings can be large; an effect the other way counts as inactive or inconclusive. Potency is the fitted concentration of half-maximal effect.

SMILES	SARS PLP yeast	RE007 growth inh	Cruzain inh Det	NS1 inh	Cruzain inh noDet	2A StopGo	LASV entry inh	Marburg entry inh
CC1=CCC2C(=O)N(c3cccc(C(=O)N(C)C4CCCCC4)c3)C(=O)C2C1 (configuration not stated)	4%	0%	-0.6%	-1%	15%	0%	9%	7%
O=C(/C=C/c1ccco1)NCc1ccco1	1%	21%	·	2%	·	2%	1%[46.1 µM]	-14%[46.1 µM]
COc1ccc(S(=O)(=O)N2CCC3(CC2)OCCN3S(=O)(=O)c2ccc(OC)cc2)cc1	-3%	9%	·	·	·	38%[activator]	-9%	-18%
O=C(NCCCN1CCOCC1)c1ccc(CS(=O)(=O)Cc2ccc(Cl)cc2)o1	1%	6%	-1.9%	-17%	6%	11%	10%	-16%
Cc1cc(C)cc(NC(=S)Nc2ccc(Cl)c(Cl)c2)c1	-4%	-13%	·	-68%	·	-16%	-4%[46.1 µM]	?
CC1(C)CC(=O)C2=C(C1)N(C1CCCCC1)C(=O)C2(O)C(F)(F)F (configuration not stated)	-1%	22%[3.69 µM]	-7.3%	-3%	11%	45%[activator]	?	-4%
CCOc1ccc(S(=O)(=O)N2CCCC(C(=O)NCc3ccncc3)C2)cc1 (configuration not stated)	2%	-5%	·	-14%	·	-12%	6%	?
COc1ccc(S(=O)(=O)N2CCN(C(=O)Cc3ccsc3)CC2)cc1	-2%	-5%	·	·	·	-6%	9%	18%
Cc1ccccc1CNC(=O)c1ccccc1N	6%	-3%	-1.2%	0%	?	3%	2%	14%
CCOC(=O)c1cccc(NC(=O)c2cc(C)nn2-c2ccccc2)c1	0%	-10%	·	-5%	·	-9%	?	?
CS/C(=N\S(=O)(=O)c1cccs1)Nc1cccc(Cl)c1C	-35%	25%	-4.9%	-4%	-3%	-6%	0%	-19%
COc1ccccc1N1CCN(C(=O)c2cnc(N3CCOCC3)c3ccccc23)CC1	·	·	-2.9%	·	?	-25%	?	·
CC(C)CC(OC(=O)c1cccs1)C(=O)NCC1CCCO1 (configuration not stated)	-3%	-5%	0.3%	1%	-5%	0%	28%	12%
CC1CN(CCCCOc2ccc(C(C)C)cc2)CC(C)O1 (configuration not stated)	-8%	-6%	2.6%	-8%	0%	-35%	-15%	?
COc1ccccc1C(=O)N(Cc1ccco1)Cc1ccccc1F	·	·	-4.6%	·	-2%	-7%	1%[46.1 µM]	0%[46.1 µM]
O=C(N/N=C/c1c[nH]c2ccccc12)c1sc2ccccc2c1Cl	-36%	-10%	-9.9%	-16%	-3%	60%[activator]	7%	-24%
Clc1ccc(-c2cc(-c3ccccn3)on2)c(Cl)c1	-2%	?	·	-5%	·	-89%	·	·
Cc1csc(N/N=C/c2ccc(O)c([N+](=O)[O-])c2)n1	10µM*	9%	7.1µM*	-82%	7.9µM*	56%[activator]	?	1%
COc1ccc(NC(=O)C2CCCN(c3cc(C)nc4ncnn34)C2)cc1 (configuration not stated)	0%	0%	·	1%	·	?	4%	?
CC1=C(C(N)=O)C(c2cccnc2)n2nc(-c3cccc(Cl)c3)nc2N1 (configuration not stated)	0%	-15%	-1.7%	-3%	-4%	-13%	-6%	6%
CCc1ccc(C2C(C#N)=C(N)N(N3CCOCC3)C3=C2C(=O)CC(C)(C)C3)s1 (configuration not stated)	0%	4%	·	·	·	-19%	22%	-11%[46.1 µM]
Cn1cc(Cl)c(C(=O)N2CCN(c3ncccn3)CC2)n1	10%	8%	0.8%	5%	1%	-11%	-2%	-4%
Nc1nc(N)c(Br)c(Nc2ccc(Cl)c(Cl)c2)n1	·	-23%	·	·	·	-3%	2%[46.1 µM]	?
COc1cc(C(=O)OCC(=O)NCCCc2ccccc2)ccc1OCC(C)C	-2%	0%	·	13%	·	-4%	-16%[46.1 µM]	-18%[46.1 µM]
CC1(C)C(C=C(Cl)Cl)C1C(=O)N/N=C/c1ccccc1F (configuration not stated)	-20%	-10%	·	10%	·	-19%	4%[46.1 µM]	?
O=C(CSc1ccccc1[N+](=O)[O-])NC1CCS(=O)(=O)C1 (configuration not stated)	-1%	2%	-3.1%	15%	-4%	-8%	11%	-1%
O=S(=O)(c1ccc(F)cc1)n1ccc(-c2cccc(OCc3c(F)cccc3Cl)c2)n1	2%	3%	10%	?	-12%	-4%	-10%	?
COc1ccc(CC(=O)c2ccccc2C(=O)O)cc1	8%	-5%	3.5%	-3%	-1%	·	14%	24%
O=C(COC(=O)Cc1ccc(Cl)cc1)Nc1ccc2[nH]c(=O)[nH]c2c1	1%	4%	·	·	·	-11%	-2%[46.1 µM]	11%
COc1ccc(S(=O)(=O)N2CCC(C(=O)NCCCN3CCOCC3)CC2)cc1	18%	2%	·	-11%	·	-11%	·	·

Fetched by compound from above:
SMILES	SARS PLP yeast	RE007 growth inh	Cruzain inh Det	NS1 inh	Cruzain inh noDet	2A StopGo	LASV entry inh	Marburg entry inh
COc1ccc(CC(=O)c2ccccc2C(=O)O)cc1	8%	-5%	3.5%	-3%	-1%	·	14%	24%
COc1ccc(NC(=O)C2CCCN(c3cc(C)nc4ncnn34)C2)cc1 (configuration not stated)	0%	0%	·	1%	·	?	4%	?
Nc1nc(N)c(Br)c(Nc2ccc(Cl)c(Cl)c2)n1	·	-23%	·	·	·	-3%	2%[46.1 µM]	?

Following part:
SMILES	SARS PLP yeast	RE007 growth inh	Cruzain inh Det	NS1 inh	Cruzain inh noDet	2A StopGo	LASV entry inh	Marburg entry inh
CCn1c(O)c(C=Nc2ccccc2)sc1=O	-1%	55%	·	?	·	15%	12%[46.1 µM]	?
O=C(NCCSc1c(-c2ccccc2)[nH]c2ccccc12)c1ccc(S(=O)(=O)N2CCOCC2)cc1	·	·	-3.4%	·	?	-5%	?	?
COc1ccc(-c2ncncc2-c2ccccc2)c(O)c1	-1%	2%	·	-5%	·	-26%	·	·
COc1ccc(CNC(=O)CSc2n[nH]c(-c3ccc(F)cc3)n2)cc1	·	·	-0.5%	·	0%	-9%	?	·
COc1ccccc1CSc1ncc(-c2ccc([N+](=O)[O-])cc2)[nH]1	-54%	32%	-12%	-42%	?	?	?	?
COc1cccc(CNS(=O)(=O)c2ccc3c(c2)CC(C)N3C(=O)C2CCC2)c1 (configuration not stated)	-4%	11%	·	-27%	·	?	?	?
FC(F)(F)c1cc(-c2ccc(Cl)cc2)nc2ncnn12	10%	?	-6.7%	-15%	3%	-18%	-25%	4%[46.1 µM]
CCOC(=O)CC(=O)CSc1nc(N)c(C#N)c(-c2ccc(Cl)cc2)c1C#N	3%	-2%	-1.9%	24%	32µM*	-2%	-19%[14.3 µM]	-9%&-9%
O=[N+]([O-])c1ccc(Oc2cnc3ccccc3n2)cc1	0%	18%	·	·	·	17%	4%	-2%[46.1 µM]
CCOC(=O)N1CCN(C(=O)COc2ccc(S(=O)(=O)NC(C)C)cc2)CC1	0%	3%	-0.4%	-7%	0%	-15%	·	·
Cc1nc(C2CC(=O)OC23CCCCC3)cs1 (configuration not stated)	2%	-23%	1.1%	-13%	1%	-16%	0%	6%
Cc1cccc(C(=O)NCC(=O)N(C)CC(=O)Nc2ccc(N3CCOCC3)cc2)c1	3%	-11%	·	-5%	·	31%[activator]	?	12%
CCc1ccccc1Nc1nn2c(=O)c3ccc(C(=O)NC4CCC(C)CC4)cc3nc2s1 (configuration not stated)	·	·	-5.2%	·	-29%	0%	-11%[46.1 µM]	·
CCOc1ccc(CCNC(=O)CN2C(=O)NC3(CCCC3)C2=O)cc1OCC	-1%	1%	·	7%	·	11%	·	·
CCC(C)N(C)C1CCN(C(=S)Nc2ccc(OC)cc2)CC1 (configuration not stated)	2%	-10%	·	·	·	-16%	26%	-8%[46.1 µM]
CCN(CC)CCCNC(=O)c1cc(-c2ccccc2)c(N2CCCCC2)s1	2%	8%	·	0%	·	?	16µM*	?
CC1CCC(C(C)C)C(OC(=O)COC(=O)c2cccn2C)C1 (configuration not stated)	-17%	4%	-7.9%	-33%	3%	?	?	-29%[46.1 µM]
CCn1c(CNC(=O)c2cccs2)n[nH]c1=S	2%	-12%	2.1%	?	0%	1%	2%	1%
O=C(/C=C\c1ccc2c(c1)OCO2)NC1CC(=O)N(c2cccc(F)c2)C1 (configuration not stated)	·	·	-7.7%	·	-19%	-9%	16%[46.1 µM]	·
COc1ccc(NC(=O)COC(=O)Cc2ccccc2[N+](=O)[O-])cc1OC	1%	-15%	·	-1%	·	?	·	·
CCOc1cccc(C(=O)N(Cc2cccc(F)c2)C2CCS(=O)(=O)C2)c1 (configuration not stated)	9%	9%	·	2%	·	-8%	·	·
CC(=O)Nc1ccc(-n2c(C)nc(=O)c(-c3ccccc3)c2C)cc1	-1%	4%	0.3%	3%	-4%	1%	-4%	18%
Cc1ccc(CNS(=O)(=O)c2ccc(C(F)(F)F)cc2)n1C	1%	-7%	·	6%	·	45%[activator]	·	·
CC(=O)c1cc(C(=O)Nc2cccc(C)c2)c2ccccn12	·	·	-7.8%	·	13%	9%	24%[46.1 µM]	·
COc1ccc(CCNC(=O)C2CC(=O)N(C3CCCC3)C2)cc1OC (configuration not stated)	3%	-12%	3.9%	-1%	12%	·	18%	-1%
COc1cc(CN2CCNC(=O)C2CC(=O)NCCCN2CCOCC2)cc(OC)c1 (configuration not stated)	-1%	11%	·	4%	·	1%	23%[46.1 µM]	?
CCCc1nc2ccccc2n1C(=S)SC	7%	0%	·	·	·	?	-2%[46.1 µM]	2%[46.1 µM]
Cc1nn(C(=O)c2ccccc2)c(C)c1S(=O)(=O)N1CCCCCC1	·	·	-1.1%	·	-2%	22%	14%[46.1 µM]	·
CCN(CC)C(=O)Cn1cc(C(=O)C(=O)N(CC)C2CCCCC2)c2ccccc21	4%	3%	·	10%	·	14%	1%	-6%
